Ba/F3 V617F tox: reduced viability of JAK2V617F-dependent Ba/F3 cells, primary screen, JAK2V617F inhibitor project, cell-based, Ba/F3 EpoR-JAK2V617F, luminescence; ATP luminescence; 1.1% of 220,000 active; AID 1446, 2008; inhibition, % at 5.6 µM;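 active = inhibition above the campaign mean plus 3 SD over all tested compounds, cut at about 24% in these data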;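 also: cytokine-independent growth of Ba/F3 cells driven by EpoR plus mutant JAK2; 0% = DMSO-treated cells and 100% = JAK inhibitor I control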
NPY-Y1 antag: NPY-Y1 receptor antagonists, primary screen, cell-based | 1% of 200,000 active | Neuropeptide Y receptor type 1 (Homo sapiens), P25929 | AID 1040, 2008 | HEK293-CNG Y1 cells, membrane potential fluorescence; NPY at EC95, then isoproterenol | inhibition, % at 3.6 µM;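 active = inhibition above the campaign mean inhibition of all tested compounds plus 3 SD, cut at about 20% in these data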;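 also: 0% = DMSO wells given NPY plus isoproterenol and 100% = isoproterenol alone without NPY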
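Material: Y1- and CNG-channel-expressing HEK293 cells / Probe or stimulus: NPY 25 nM then isoproterenol 1 µM plus Ro 20-1724 25 µM / Doses: 3.6 µM single dose, DMSO 0.4% / Schedule: compound incubation 1 h at room temperature, readout 45 min post-stimulation / Signal: membrane potential fluorescence / Benchmarks: isoproterenol-only wells as full block versus NPY-plus-isoproterenol wells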
S1P4 ag: S1P4 receptor agonists, primary screen, cell-based. Sphingosine 1-phosphate receptor 4 (Homo sapiens), O95977. S1P4-expressing cell line, agonist reporter assay. activation, % at 4.98 µM. 0.35% of 220,000 active. AID 1509, 2009; in the data active = activation above about 11%;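 also: 0% = DMSO vehicle and 100% = reference agonist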
Target sequence (O95977 whole entry, looked up): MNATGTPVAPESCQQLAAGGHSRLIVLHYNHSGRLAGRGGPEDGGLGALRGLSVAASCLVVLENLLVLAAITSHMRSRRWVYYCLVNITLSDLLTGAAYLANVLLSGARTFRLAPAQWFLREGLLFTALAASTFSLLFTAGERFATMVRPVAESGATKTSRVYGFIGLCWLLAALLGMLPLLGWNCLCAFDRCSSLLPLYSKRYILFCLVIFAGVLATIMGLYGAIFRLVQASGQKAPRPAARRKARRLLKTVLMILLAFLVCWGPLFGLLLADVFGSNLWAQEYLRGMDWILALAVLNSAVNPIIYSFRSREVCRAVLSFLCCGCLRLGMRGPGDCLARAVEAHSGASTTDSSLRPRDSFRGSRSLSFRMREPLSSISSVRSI
S1P4 antag: S1P4 receptor antagonists, primary screen, cell-based; AID 1510, 2009; inhibition, % at 4.98 µM; 0.26% of 220,000 active; Sphingosine 1-phosphate receptor 4 (Homo sapiens), O95977; S1P4-expressing cells, antagonist mode, reporter read-out; in the data active = inhibition above about 29%;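 also: 0% = wells stimulated with agonist and 100% = vehicle wells without agonist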
NPY-Y1 PAM-ag: NPY-Y1 receptor potentiators or agonists, primary screen, cell-based; Neuropeptide Y receptor type 1 (Homo sapiens), P25929; NPY-Y1 expressing cells, potentiator/agonist activation; activation, % at 3.6 µM; 0.37% of 220,000 active; in the data active = activation above about 33%, passing the limit was not always enough;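 also: cells stimulated with NPY at EC10 then isoproterenol at EC100; 0% = low agonist plus stimulus and 100% = saturating agonist plus stimulus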
BaF3 parental: parental Ba/F3 cell viability inhibition, counter-screen for JAK2V617F inhibitor project, murine pro-B, CellTiter-Glo luminescence. CellTiter-Glo ATP luminescence. inhibition, % at 5.6 µM. 1.1% of 220,000 active;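 active = inhibition above a per-campaign cutoff, the mean inhibition of all tested compounds plus 3 SD, cut at about 27% in these data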;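 also: 0% = DMSO wells and 100% = JAK Inhibitor I control wells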
RBBP9 inh: human RBBP9 inhibitors, primary screen, biochemical, fluorescence polarization, FP-Rh probe, HTS. 0.2% of 220,000 active. recombinant RBBP9. inhibition, % at 7.94 µM;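 active = inhibition above the campaign mean of all tested compounds plus 3 SD, cut at about 14% in these data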;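 also: plate controls were DMSO wells with RBBP9 for no effect and wells lacking RBBP9 protein for full effect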
Target sequence (O75884 whole entry, looked up): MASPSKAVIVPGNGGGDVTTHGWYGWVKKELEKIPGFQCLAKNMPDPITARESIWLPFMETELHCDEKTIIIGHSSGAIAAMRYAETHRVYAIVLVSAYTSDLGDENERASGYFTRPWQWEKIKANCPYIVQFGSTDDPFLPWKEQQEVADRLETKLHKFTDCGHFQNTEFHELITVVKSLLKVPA
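System: RBBP9 protein / Buffer or medium: Tris/NaCl buffer pH 8.0 with 0.1% Pluronic / Probe or stimulus: Serine-hydrolase probe FP-Rh, 375 nM pre-mixing / Dosing: 7.94 µM single dose, 0.794% DMSO / Times: enzyme-compound preincubation 30 min, then probe labeling 45 min, 25 °C / Technique: fluorescence polarization (mP), excitation 525 nm, emission 598 nm / Replication: singlicate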
NPY-Y2 PAM-ag: NPY-Y2 potentiators or agonists, primary screen, cell-based; Neuropeptide Y receptor type 2 (Homo sapiens), P49146; activation, % at 3.6 µM; 0.45% of 220,000 active; cells expressing NPY-Y2, potentiator/agonist read-out; in the data active = activation above about 27%;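 also: cells stimulated with NPY near EC25 plus isoproterenol at EC100; 0% = vehicle plus submaximal agonist and 100% = vehicle plus saturating agonist; some results beyond the cut were filed as inactive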
Target sequence (P49146 whole entry, looked up): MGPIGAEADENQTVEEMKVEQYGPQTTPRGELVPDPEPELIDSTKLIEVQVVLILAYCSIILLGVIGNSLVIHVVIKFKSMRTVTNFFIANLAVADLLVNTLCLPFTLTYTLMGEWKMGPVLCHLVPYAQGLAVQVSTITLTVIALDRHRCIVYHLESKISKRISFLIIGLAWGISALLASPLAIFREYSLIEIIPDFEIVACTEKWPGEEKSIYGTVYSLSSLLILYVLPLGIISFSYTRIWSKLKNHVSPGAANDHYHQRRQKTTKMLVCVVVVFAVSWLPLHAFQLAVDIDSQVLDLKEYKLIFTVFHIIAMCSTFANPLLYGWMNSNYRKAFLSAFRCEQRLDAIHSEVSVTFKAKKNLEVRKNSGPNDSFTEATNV
Numbers without * were called inactive. Some of the compounds tested (hit frequency here may not be typical).

SMILES	Ba/F3 V617F tox	NPY-Y1 antag	S1P4 ag	S1P4 antag	NPY-Y1 PAM-ag	BaF3 parental	RBBP9 inh	NPY-Y2 PAM-ag
CCCCCCCCCCCC(=O)NC(C(=O)OCC)C(O)c1cccc([N+](=O)[O-])c1 (configuration not stated)	-3	1	-1.8	-2	4	-1	6	5
CCCCN1C(=O)/C(=c2\sc3nc(=O)c(-c4ccccc4)nn3c2=O)c2ccccc21	-2	-2	8.9	-5	-19	2	9	4
CN(C(=O)CSc1ncccc1C(=O)O)c1ccccc1	-1	-5	1.1	6	-9	0	-9	2
O=C(CN(c1ccccc1)S(=O)(=O)c1ccccc1)NCCSCc1ccco1	-3	1	1.9	-7	9	3	-8	-7
CC1=C(C(=O)NCCN2CCN(C)CC2)C2(CCC(C)CC2)OC1=O (configuration not stated)	-1	0	1.3	1	-8	3	-6	48*
CN1C2C=C3C(C#N)=C(N)C(C#N)(C#N)[C@H](c4c(F)cccc4F)[C@H]3C1CC2 (some centres not stated)	3	0	0.9	-14	16	4	-7	-25
COc1ccc(C(=O)NCS(=O)(=O)c2ccc(C)cc2)cc1	-3	7	-0.6	-7	-10	-1	1	2
CCOC(=O)c1cnc2cc(-c3ccc(C)cc3)nn2c1-c1ccccc1	3	1	0.7	-6	8	1	-4	-9
COc1c(F)c(F)c(C(=O)O)c(Nc2ccc(C)cc2)c1F	-2	4	-0.6	5	0	0	5	2
O=C(O)c1cc(S(=O)(=O)NCC2CCCO2)ccc1Cl (configuration not stated)	-3	2	0.8	-21	-35	-1	-11	-1
COc1ccc(NC(=O)COC(=O)c2ccc(OCc3c(C)noc3C)cc2)cc1OC	-4	3	-0.1	-14	21	3	-7	21
CC(C)OC(=O)c1sc2nc(-c3ccccc3)ccc2c1N	0	-1	2.4	-8	-5	6	-4	-3
O=C(NCc1ccccc1C(F)(F)F)C1CC(c2ccccc2[N+](=O)[O-])=NO1 (configuration not stated)	-2	8	0.1	-24	-7	2	-6	-5
COc1ccc(/C(O)=C2/C(=O)C(=O)N(CC3CCCO3)C2c2cccc(O)c2)cc1 (configuration not stated)	5	-6	-1.0	-6	-1	1	-7	-5
Cc1ccc(Cn2nc(-c3ccccc3)nc2-c2ccccc2)cc1	-1	25*	-1.0	-21	-13	2	-9	-30
CC1CCc2cccc3c2N1c1cc(C#N)c(C#N)cc1O3 (configuration not stated)	2	8	0.8	-2	6	3	-4	1
COc1ccc(-c2cc(=O)oc3cc4occ(C)c4cc23)cc1	-3	13	-0.3	-35	-7	-3	-4	-19
COC(=O)c1ccc(C(=O)OC)c(NC(=O)CSCc2ccc(Br)cc2)c1	2	7	-2.3	-4	3	1	-4	-8
Cc1ccc2nc(NC(=S)NC(=O)c3cccs3)sc2c1	-3	3	-0.4	-27	11	5	-5	1
Cc1cc(CSc2ccccc2)ccc1NC(=O)c1cccc([N+](=O)[O-])c1	-2	-3	0.1	-26	15	7	-4	-10
O=C(O)C1C2C=CC(C2)C1C(=O)NCCC1=CCCCC1 (configuration not stated)	-2	-2	0.4	-6	5	2	-1	-13
CC(=O)Nc1ccccc1C(=O)C(=O)Nc1ccc(F)cc1	-2	-3	0.7	-18	9	0	-2	4
Cc1cc(NC(=O)CSc2nc3sc(C)c(C)c3c(=O)n2C2CCCC2)no1	3	0	-1.5	-7	0	10	-3	-6
NC(=O)C1CCN(C(=O)CCc2nc3ccccc3c(=O)[nH]2)CC1	-3	-2	-2.1	-1	-8	0	3	-4
COc1ccc(CNC(=O)C2CCN(C(=O)N3CCOc4ccc(C)cc43)CC2)cc1	-6	3	0.7	-21	14	0	-5	13
(cont.)
SMILES	Ba/F3 V617F tox	NPY-Y1 antag	S1P4 ag	S1P4 antag	NPY-Y1 PAM-ag	BaF3 parental	RBBP9 inh	NPY-Y2 PAM-ag
Cn1nnc(NC(=O)c2ccco2)n1	-1	0	0.3	-17	4	2	-7	17
Cc1sc2c(c1C)CN(C(C)(C)C)CN2C(=O)c1ccccc1	-1	3	1.8	-2	-17	5	-3	-11
COc1ccc2nc(Sc3c([N+](=O)[O-])nc(C)n3Cc3ccccc3)[nH]c2c1	10	1	-1.2	3	-14	-3	-11	-9
Cn1cc(C(=O)c2ccc(Cl)cc2)cc1-c1nc2ccccc2n1C	-2	-2	-0.5	-18	-17	47*	-3	-4
CC(C)CNC(=O)C(=O)N/N=C/c1cccs1	-6	0	0.6	-6	-11	-3	-3	-10
CCSc1cc(N2CCCC2)nc(-c2ccc(F)cc2)n1	0	1	-0.2	-2	2	10	3	7
COc1cccc(C(=O)NC2CC3CCCC(C2)N3CC(=O)Nc2ccccc2)c1 (configuration not stated)	2	-3	-1.4	4	26	3	-4	-9
Cc1ccc(-c2cc(N)n(-c3ccc(C)cc3)n2)cc1	6	2	-2.8	-8	5	8	-12	1
CCc1cc(C(c2ccc(F)cc2)N2CCOCC2)c(NC(=O)c2ccccc2)s1 (configuration not stated)	3	2	2.5	1	-5	-4	-8	-9
CCn1nnnc1SCC(=O)NC1CCCC1	-4	1	0.0	-8	16	-2	-5	2
CCOC(=O)C1(N(CC)CC)Sc2cc(C)ccc2NC1=O (configuration not stated)	-3	-15	1.0	4	10	5	-10	13
O=C(CNC(=O)c1ccccn1)N/N=C/c1ccccc1	-4	0	2.1	-2	-12	0	3	-1
O=C(N/N=C/c1ccco1)c1ccncc1	0	2	1.8	6	3	1	4	9
CC12CCC(C(=O)N(CC(O)CN3CCCCC3)C1=O)C2(C)C (configuration not stated)	1	-2	-3.0	-10	23	8	-6	0
O=C(CN1C(=O)C2C3C=CC(C3)C2C1=O)Nc1ccc(C(=O)O)cc1 (configuration not stated)	-2	-6	0.0	-9	11	3	-2	7
CCC(=O)Nc1ccc(C(=O)Nc2ccc3c(c2)OCO3)cc1	1	-7	2.2	3	13	6	-5	-3
Cc1ccnc(NS(=O)(=O)c2ccc(NC(=O)C3CCCNC3=O)cc2)n1 (configuration not stated)	0	0	-2.5	0	-23	4	-10	-3
O=C(CC1c2ccccc2Oc2ccccc21)N1CCN(c2ccccn2)CC1	-3	14	0.5	0	-11	6	-5	2
COc1ccccc1NC(=O)Cc1csc(NC(=S)Nc2ccc(C)cc2)n1	6	1	-1.4	-17	-1	9	-13	-2
CCn1c(CC(=O)Nc2ccc(C)cc2)nnc1SCC(=O)Nc1nc(C)cs1	1	1	-1.5	-3	-7	3	-10	-10
COc1ccccc1NC(=O)CN1CCN(CC(=O)Nc2ccc(Cl)c(C(F)(F)F)c2)CC1	-1	3	-0.2	-14	-6	3	-2	-1
COc1ccc(C2C(C(=O)N3CCOCC3)=C(C)NC3=C2C(=O)CC(C)(C)C3)c(OC)c1 (configuration not stated)	-3	-5	-3.6	17	2	4	-5	0
OCCNC1=NCCN1	-4	8	-1.1	-10	29	6	-1	4
CCOc1ccccc1OCC(=O)Nc1ccc(Cl)cc1Cl	4	14	0.1	-5	-22	3	-7	-6
CCOCCCNC(=O)CCS(=O)(=O)Cc1ccc(C)cc1	3	-2	1.0	-16	-11	9	-4	4

Pulled by compound from the entries so far:
SMILES	Ba/F3 V617F tox	NPY-Y1 antag	S1P4 ag	S1P4 antag	NPY-Y1 PAM-ag	BaF3 parental	RBBP9 inh	NPY-Y2 PAM-ag
Cc1sc2c(c1C)CN(C(C)(C)C)CN2C(=O)c1ccccc1	-1	3	1.8	-2	-17	5	-3	-11
O=C(CC1c2ccccc2Oc2ccccc21)N1CCN(c2ccccn2)CC1	-3	14	0.5	0	-11	6	-5	2

(continued)
SMILES	Ba/F3 V617F tox	NPY-Y1 antag	S1P4 ag	S1P4 antag	NPY-Y1 PAM-ag	BaF3 parental	RBBP9 inh	NPY-Y2 PAM-ag
CC(=O)NCCn1c(SCc2ccc(C)cc2)nc2ccccc2c1=O	-1	1	1.4	-23	-5	7	-4	4
COc1ccc(Cl)cc1C(=O)N1CCN(c2ccccn2)CC1	1	4	-0.9	4	10	3	-10	1
CCOc1ccc(/C=N/NC(=O)COc2ccccc2-c2ccccc2)cc1	3	3	0.7	-4	-14	5	-7	-2
CC(=O)Nc1ccc(-c2ccccc2)s1	-8	-4	0.6	-5	18	2	3	-3
O=[N+]([O-])c1cc2c(cc1/C=N/Nc1nc(Nc3ccccc3)nc(N3CCCCC3)n1)OCO2	-1	1	-0.7	5	22	3	-2	-6
CCOC(=O)N1CCN(C(=O)c2ccc3c(=O)n(-c4ccc(F)cc4)c(=S)[nH]c3c2)CC1	1	10	0.8	-8	-4	1	-4	-10
O=C(Nc1cccc(C(=O)N2CCOCC2)c1)c1ccccc1	-2	4	-0.2	-28	9	3	-6	-4

Reformatted as a markdown table: 4 of the compounds above.
| molecule | Ba/F3 V617F tox | NPY-Y1 antag | S1P4 ag | S1P4 antag | NPY-Y1 PAM-ag | BaF3 parental | RBBP9 inh | NPY-Y2 PAM-ag |
| --- | --- | --- | --- | --- | --- | --- | --- | --- |
| COc1ccc(Cl)cc1C(=O)N1CCN(c2ccccn2)CC1 | 1 | 4 | -0.9 | 4 | 10 | 3 | -10 | 1 |
| CCOc1ccc(/C=N/NC(=O)COc2ccccc2-c2ccccc2)cc1 | 3 | 3 | 0.7 | -4 | -14 | 5 | -7 | -2 |
| CC(=O)Nc1ccc(-c2ccccc2)s1 | -8 | -4 | 0.6 | -5 | 18 | 2 | 3 | -3 |
| O=[N+]([O-])c1cc2c(cc1/C=N/Nc1nc(Nc3ccccc3)nc(N3CCCCC3)n1)OCO2 | -1 | 1 | -0.7 | 5 | 22 | 3 | -2 | -6 |

Arranged by molar mass (smallest number first): part of the list above.
SMILES	Ba/F3 V617F tox	NPY-Y1 antag	S1P4 ag	S1P4 antag	NPY-Y1 PAM-ag	BaF3 parental	RBBP9 inh	NPY-Y2 PAM-ag
CC(=O)Nc1ccc(-c2ccccc2)s1	-8	-4	0.6	-5	18	2	3	-3
O=C(Nc1cccc(C(=O)N2CCOCC2)c1)c1ccccc1	-2	4	-0.2	-28	9	3	-6	-4
CC(=O)NCCn1c(SCc2ccc(C)cc2)nc2ccccc2c1=O	-1	1	1.4	-23	-5	7	-4	4
CCOC(=O)N1CCN(C(=O)c2ccc3c(=O)n(-c4ccc(F)cc4)c(=S)[nH]c3c2)CC1	1	10	0.8	-8	-4	1	-4	-10

Record cards (already shown):
CC(=O)Nc1ccc(-c2ccccc2)s1 across the screens: Ba/F3 V617F tox: -8; NPY-Y1 antag: -4; S1P4 ag: 0.6; S1P4 antag: -5; NPY-Y1 PAM-ag: 18; BaF3 parental: 2; RBBP9 inh: 3; NPY-Y2 PAM-ag: -3
O=C(Nc1cccc(C(=O)N2CCOCC2)c1)c1ccccc1 across the screens: Ba/F3 V617F tox: -2; NPY-Y1 antag: 4; S1P4 ag: -0.2; S1P4 antag: -28; NPY-Y1 PAM-ag: 9; BaF3 parental: 3; RBBP9 inh: -6; NPY-Y2 PAM-ag: -4

High-throughput results (PubChem BioAssay)
